Assay outcomes deposited in PubChem by several laboratories.
Beta2AR agonist – human beta-2 adrenergic receptor agonism by FAP; P07550; Am2.2-beta2AR cells, FAP receptor internalization, flow cytometry; reference of the scale not given here; response, % (no concentration beside the values); 340,000 tested, 0.43% active; AID 504454;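 active = response above a set limit, near 3 SD of response in nonfluorescent compounds, cut at about 42% in these data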;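 also: stock transfer was 100 nL into about 11 µL; a reference agonist was the positive control; negative values mostly stem from fluorescent compounds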
Target sequence (P07550 whole entry, looked up): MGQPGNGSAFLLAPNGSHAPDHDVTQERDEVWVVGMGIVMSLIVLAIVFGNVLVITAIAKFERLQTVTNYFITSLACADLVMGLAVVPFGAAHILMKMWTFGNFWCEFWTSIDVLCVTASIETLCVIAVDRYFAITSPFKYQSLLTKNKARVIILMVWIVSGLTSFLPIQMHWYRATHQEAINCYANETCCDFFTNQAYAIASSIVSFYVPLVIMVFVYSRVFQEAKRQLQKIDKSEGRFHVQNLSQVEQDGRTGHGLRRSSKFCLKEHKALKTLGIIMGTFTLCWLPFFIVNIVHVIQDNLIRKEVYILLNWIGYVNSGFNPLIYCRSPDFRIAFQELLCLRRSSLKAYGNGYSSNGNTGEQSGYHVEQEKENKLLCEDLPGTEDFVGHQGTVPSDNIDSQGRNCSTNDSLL
Vif A3G – inhibitors of Vif binding to APOBEC3G peptide, primary screen, biochemical, TR-FRET, GST-Vif 1-94, biotin-A3G peptide, dose response retest (AID 1117319) | TR-FRET GST-Vif / biotin-A3G peptide binding; higher % means a stronger effect; test concentration not given here; strong numbers were not always called active | inhibition, %, or IC50 in µM where a hit was titrated | 260,000 tested, 0.57% active;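 active = above the screen mean plus three standard deviations and confirmed in dose response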;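 also: Vif residues 1-94 fused to GST binding biotinylated APOBEC3G peptide 110-148; 0% = full assay without inhibitor and 100% = GST in place of GST-Vif; retest series ran down from 100 µM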
RanGTP-Impb inh – disruptors of Ran-importin-beta complex formation – biochemical, FRET, CFP-Ran, YFP-importin-beta, homogeneous, primary screen. cell-free CFP-Ran/YFP-importin-beta FRET ratio. inhibition, % (concentration not given with the values). 300,000 tested, 1.1% active. AID 2216;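 active = most replicates above 15%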;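 also: 0% = DMSO wells and 100% = Ran loaded with GDP instead of GTP; wells of about 40 µL received 100 nL stock; the first replicate is given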
HNF4A DNA FP – change in binding of human HNF4 alpha to DNA; P41235; HNF4a-FITC DNA binding, fluorescence polarization, 1 h; activity change, % at 10 µM; 360,000 tested, 0.3% active; in the data active = activity change above about 30%, passing the limit was not always enough;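 also: controls were the assay level and a saturating level of protein; the project sought stronger binding though the title names inhibitors; some compounds called inactive have numbers as strong as hits; positive values seem to mean higher polarization but the record does not say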
LANA-H2A inh – blocks KSHV LANA binding to histone H2A/H2B; Q9QR71; cell-free LANA-H2A/H2B peptide, fluorescence polarization; inhibition, % (test concentration not listed); 320,000 tested, 0.6% active; AID 2629; in the data active = inhibition mostly above about 10%, no sharp cut-off; inactive = mostly below about 6.7%;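 also: stock transfer was 7.5 nL into about 10 µL; 0% = median of vehicle wells and 100% = median of positive control wells; one replicate is shown; the record names a cut of 25% in any replicate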
Calb FLC – C. albicans growth modulation with fluconazole; C. albicans CaCi-2 (fluconazole-resistant clinical isolate) + fluconazole, Alamar Blue growth, 48 h; growth inhibition, % (test concentration not listed); 300,000 tested, 0.57% active; AID 1979;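 active = most replicates above 75%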;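 also: all wells also contain fluconazole at 8 µg/ml as a sub-toxic cotreatment; 0% = median of DMSO wells and 100% = median of geldanamycin control wells; wells of about 8 µL received 7.5 nL stock; the first replicate is given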
ALR H2O2 inh – human ALR oxidase inhibition via reduced H2O2; purified ALR, DTT oxidation, H2O2 HRP-luminol luminescence; inhibition, % (test concentration not listed); 290,000 tested, 3.8% active;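 active = mean and each replicate at 75% or more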;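 also: stock transfer was 7.5 nL into about 7.5 µL; 0% = neutral wells and 100% = wells with inactivated enzyme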
Target sequence (P55789 whole entry, looked up): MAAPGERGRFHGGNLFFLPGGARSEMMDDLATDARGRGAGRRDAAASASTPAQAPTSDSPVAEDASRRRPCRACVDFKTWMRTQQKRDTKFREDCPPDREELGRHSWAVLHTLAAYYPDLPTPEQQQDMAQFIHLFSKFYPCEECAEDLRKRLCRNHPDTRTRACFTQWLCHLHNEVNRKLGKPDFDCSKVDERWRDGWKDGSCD
Active calls of the source: *; i = inactive; / = not tested or not shown.

compound	Beta2AR agonist	Vif A3G	RanGTP-Impb inh	HNF4A DNA FP	LANA-H2A inh	Calb FLC	ALR H2O2 inh
COc1ccc(/C=N/N2CCN(c3ccc(Cl)cc3)CC2)cc1	1	/	4.7	-5.0	-1.2	7	-7
Cn1c(SCC(=O)NC2CCCCC2)nnc1-c1ccccc1O	-1	-3%	-6.0	3.6	0.9	5	1
COc1ccc(N2CCN(CC(O)COCc3ccccc3)CC2)cc1 (stereo not given)	2	22%	-3.0	-1.4	1.8	-27	30
O=C(NC1CCCc2ccccc21)c1ccc(=O)[nH]c1 (stereo not given)	5	-1%	4.6	1.1	-1.9	-1	-15
CC(=O)c1cccc(NC(=O)C(C)OC(=O)CN2C(=O)NC(C)(C)C2=O)c1 (stereo not given)	-4	0%	/	2.2	/	/	-6
CCc1sc(C(=O)NC(C)C2CCCO2)cc1Br (stereo not given)	0	-3%	0.5	-0.1	2.0	1	-7
Oc1c(N=Nc2ccccc2)sc2ccccc12	8	-10%	29*	20	7.5	0	-7
NS(=O)(=O)c1ccc(CNC(=O)c2cc(=O)c3cc(Cl)ccc3o2)cc1	3	3%	-2.7	0.5	0.8	-4	4
CCCCn1c(-c2ccc(F)c(F)c2)nc2cc3[nH]c(=O)c(C(C)C)nc3cc21	3	/	4.3	18	-2.1	6	-45
CCCc1cc(=O)n2nc(N3CCC(C(=O)Nc4c(F)c(F)c(F)c(F)c4F)CC3)sc2n1	-9	/	-0.5	-2.1	2.8	24	-1
CCn1c2ccccc2c2cc(C3C(C#N)=C(N)Oc4n[nH]c(COC)c43)ccc21 (stereo not given)	11	-4%	2.9	2.0	-2.5	8	/
COc1ccccc1Nc1ccc(C(=O)NCc2cccs2)cn1	7	3%	-1.6	2.3	-3.8	-5	-31
O=C(NCCc1ccccc1)C1CCCN(S(=O)(=O)c2cccnc2)C1 (stereo not given)	-5	0%	-3.1	3.1	5.8	2	-4
COc1ccc(C2/C=C\CN(C(=O)Nc3ccc(C(F)(F)F)cc3)CC(=O)N2Cc2ccc(F)cc2)cc1 (stereo not given)	12	-3%	1.4	4.0	2.1	-7	3
CC1CC(C)(C)NC(=S)N1CC(=O)NCc1ccc2c(c1)OCO2 (stereo not given)	-2	-9%	-4.5	0.7	i	-14	0
Cc1nc2ccccc2c(=O)n1CCc1ccc(O)cc1	-11	-3%	-0.8	0.9	-2.4	3	96*
COCCCn1c(SCC(=O)OC2CCCCC2)nnc1-c1ccco1	-8	0%	5.6	-2.8	-8.5	-4	0
Cc1cc(C)c(S(=O)(=O)n2nc(C)c(Br)c2C)c(C)c1	9	24%	1.1	-0.9	4.5	1	-4
N#CC1(NC(=O)CN2c3cccc4cccc(c34)S2(=O)=O)CCCCC1	4	2%	-2.3	1.5	1.3	-2	-14
Cc1ccccc1N(C)S(=O)(=O)c1nnc(NC(=O)c2ccccc2F)s1	5	4%	0.5	2.5	4.4	3	-9
CN(C)c1ccc(C(=O)Nc2cc(C(F)(F)F)ccc2-n2cncn2)cc1	-15	-7%	-2.9	-3.3	0.1	-9	-8
COCCNC(=O)CSc1cc(-c2ccccc2)c2ccc(OC)cc2n1	2	-25%	-0.8	1.6	0.2	3	97*
Cc1ccc(-n2c(=O)c3c4c(sc3n3c(=S)[nH]nc23)CCC4)cc1	5	6%	1.5	1.6	-2.5	3	7
COC(=O)/C=C/c1ccc2c(c1)S(=O)(=O)N(Cc1ccc(OC)cc1)[C@H]2CC(=O)OC	3	/	2.9	-2.0	1.8	6	-3
CSc1cccc(-n2cc(-c3ccc4c(c3)OCO4)[nH]c2=O)c1	-2	80%	-2.9	4.6	4.4	-11	-14

Next part, starting with the last two of the part before.
compound	Beta2AR agonist	Vif A3G	RanGTP-Impb inh	HNF4A DNA FP	LANA-H2A inh	Calb FLC	ALR H2O2 inh
COC(=O)/C=C/c1ccc2c(c1)S(=O)(=O)N(Cc1ccc(OC)cc1)[C@H]2CC(=O)OC	3	/	2.9	-2.0	1.8	6	-3
CSc1cccc(-n2cc(-c3ccc4c(c3)OCO4)[nH]c2=O)c1	-2	80%	-2.9	4.6	4.4	-11	-14
O=C(Nc1cccc(S(=O)(=O)N2CCCCC2)c1)c1cc2ccccc2o1	17	-7%	/	5.2	5.9	/	7
CCOC(=O)C1=CN(CC)S(=O)(=O)NC1c1cccc(OC)c1 (stereo not given)	-5	0%	/	5.5	/	/	/
CN(C)C(=O)/C(C#N)=C\c1cc(Br)c(Sc2ccc(Cl)cc2)o1	-1	3%	/	2.2	11	/	93*
COCCn1c(SCC(=O)N(C)C2CCS(=O)(=O)C2)nc2ccccc2c1=O (stereo not given)	-1	/	3.3	-0.4	3.0	-4	-2
CC1(C)C(=O)Nc2ccccc2N1C(=O)COc1ccccc1C#N	-1	-17%	/	-3.6	6.3	/	-2
O=C(c1cccc(Cl)c1)C1CCCN(Cc2ccc(N3CCNC3=O)cc2)C1 (stereo not given)	-19	3%	0.7	-3.3	-0.3	-45	96*
Clc1ccc(C(c2ccccc2Cl)C(Cl)Cl)cc1 (stereo not given)	9	/	/	4.8	-5.0	/	1
Cc1ccc(Sc2ncccc2C(=O)NC2CCCCCC2)cc1C	-7	1%	1.4	-0.3	-1.7	-3	35
CCN(CC)S(=O)(=O)c1ccc(NC(=O)c2ccc(N(C)S(C)(=O)=O)cc2)cc1	-1	4%	2.0	-0.7	-0.8	-6	/
CSCCC(NC(=O)c1ccccc1Cl)C(=O)NCCOc1ccccc1 (stereo not given)	-2	-1%	4.6	-3.1	-1.2	0	10
CCc1ccc(NC(=O)c2ccccc2Br)cc1	7	-6%	-3.4	3.9	-3.3	11	0
CC(=O)Nc1ccc(C(=O)NNC(=O)C2C3CCCCC32)cc1 (stereo not given)	1	/	4.1	-1.7	-0.6	-3	-5
O=C(NCCCN1CCOCC1)c1cc(S(=O)(=O)N2CCOCC2)c(Cl)cc1Cl	22	-4%	/	-6.2	6.8	/	-4
CC(C)CC1(C(=O)NCCc2c[nH]c3ccccc23)C=CCN1C(=O)c1ccccc1 (stereo not given)	3	-3%	2.9	0.7	-4.4	2	1
COc1cccc(CNC(=O)c2cccc(NC(=O)CC3SC(N4CCCCC4)=NC3=O)c2)c1 (stereo not given)	9	-7%	/	1.0	-184	/	-2
Cc1cc(C)c(S(=O)(=O)Nc2ccc(O)cc2)c(C)c1	4	1%	-2.6	-1.4	-0.2	2	99*
O=C(O)CN1C(=O)/C(=C/c2cccc(Cl)c2)Oc2ccccc21	11	/	6.6	2.1	3.0	-3	81*
O=C(Nc1ccc(S(=O)(=O)N2CCN(Cc3ccccc3)CC2)cc1)c1cnccn1	-2	0%	3.2	-2.9	0.0	13	-36
C=C(C)c1cccc(C(C)(C)NC(=O)Nc2cccnc2)c1	16	/	1.2	-2.2	1.0	-4	-2
COc1cc2c(cc1OC)/C(=C/C(=O)c1ccc([N+](=O)[O-])c(C)c1)NCC2	12	-13%	-5.9	1.7	/	-3	/
O=C(Cc1ccccc1)NS(=O)(=O)c1ccc(N=NN2CCOCC2)cc1	-4	8%	/	1.8	14	-9	9
O=C(O)C1(Nc2ccc(Br)cc2)CCCC1	-1	-7%	/	-3.0	/	/	/
O=C(N/N=C/c1ccncc1)c1ccccn1	5	-3%	4.3	-0.1	3.3	8	-17
O=C(O)CN1C(c2ccccc2)=Nc2ccc(Br)cc2C1c1ccccc1 (stereo not given)	4	5%	3.5	-2.4	-3.4	-1	/
COc1cccc(CNC(=O)CCS(=O)(=O)c2ccc3c(c2)NC(=O)C(C)S3)c1 (stereo not given)	2	/	-1.9	-4.8	-1.4	1	-4
O=S(=O)(NC1CCCC1)c1ccc(S(=O)(=O)NC2CCCC2)cc1	-5	19%	-1.9	-2.4	2.8	-12	-5
Nn1c(SCC(=O)N2CCCc3ccccc32)nnc1-c1ccc(Cl)cc1	-5	5%	-1.6	2.6	-12	-2	-5
Cc1nc(-c2cccs2)sc1C(=O)NN	17	10%	1.1	2.3	3.6	-13	38
CCCNC(=S)N1CC2(C)CN(C(=O)C(=O)OC)CC(C)(C1)C2=O	1	17%	0.0	0.8	4.2	-8	-10
C/C(N)=C(/C#N)C(=O)CSc1cc(C)c2ccccc2n1	5	-146%	-12	1.1	-6.0	-19	0
NC(=O)C1CC(O)CN1c1nc(CN2CCOCC2)nc2scc(-c3ccccc3)c12 (stereo not given)	-5	0%	6.1	3.2	0.4	5	-1
CC1CCC(O)(C(C(=O)O)c2ccccc2)CC1 (stereo not given)	-1	-1%	/	0.9	/	/	/
COc1cccc(-c2nc(CS(=O)CC(=O)NCc3ccccc3)c(C)o2)c1 (stereo not given)	-2	10%	3.2	2.3	-3.2	2	100*
COc1ccc(/C=C2\SC(c3ccc(C)cc3)=NC2=O)cc1OC	-13	9%	-8.9	86*	-3.9	7	3
COc1ccc(C(=O)OCC(=O)NC2CCCC2)cc1OC	2	-1%	2.3	1.0	1.9	2	4
CCCCN(CC(=O)Nc1c(C)cccc1CC)C(=O)SCC	-3	5%	-0.2	11	5.2	-1	-9
CC(C)(C)C1CCC(OC(=O)CN2CCOCC2)CC1 (stereo not given)	5	30%	0.5	3.5	2.0	0	-2
CCC(=O)NC(=S)NNC(=O)c1ccc([N+](=O)[O-])cc1	4	0%	1.5	-1.8	-1.8	42	19
CC1CC(=O)N(CC(=O)Nc2ccc3c(c2)OCCO3)c2ccccc2S1 (stereo not given)	-4	10%	0.9	-0.9	-4.9	40	-26
COc1ccc(CN2C(=O)C(C)Nc3ncnc(N4CCOCC4)c32)cc1 (stereo not given)	-8	/	/	4.2	-3.6	/	-1
CCCCOc1ccc(CNC(=O)NS(=O)(=O)c2ccc(OCC(C)C)cc2)cc1	-14	6%	1.1	0.2	5.7	-11	-7
Cc1nc2ccc([N+](=O)[O-])cc2s1	-7	-3%	-2.6	-2.2	-2.8	7	-18
O=C(NCC1CCCO1)c1cc2c(s1)CCCC2 (stereo not given)	0	11%	/	-1.4	-1.6	/	/
O=C(NCc1ccco1)c1cccc(S(=O)(=O)N2CCN(Cc3ccccc3)CC2)c1	-1	7%	-2.3	1.3	-5.1	-2	0
O=C(Nc1ccc(Oc2ccccc2)nc1)C1CCCCN1Cc1ccc(O)cc1 (stereo not given)	-2	2%	1.3	0.5	-2.0	-15	-1
CCOC(=O)c1sc(NC(=O)C(OC(C)=O)c2ccccc2)nc1C (stereo not given)	6	-4%	-1.4	1.5	-3.9	0	46
CCc1ccc(-n2c(=O)c3c(C)c(C(=O)N(C)C)sc3n(CC(=O)NCC3CCCO3)c2=O)cc1 (stereo not given)	1	0%	-1.6	1.2	6.3	-1	-3
NC(=O)c1nsc(C(=O)N(Cc2cccnc2)C(C(=O)NCc2ccc(F)cc2)c2ccc(F)cc2)c1N (stereo not given)	5	/	5.8	0.3	3.2	16	/
Cc1ccccc1N(C(=O)c1cccs1)c1nc2ccccc2s1	6	-6%	-4.6	-3.0	-0.2	2	8
CCOc1ccc(NC(=O)c2nnn(CC(=O)Nc3ccccc3OCC)c2N)cc1	-5	-6%	-2.2	-1.3	-0.2	-1	-8

Ordered by molecular weight (highest first): 3 of the compounds above
compound	Beta2AR agonist	Vif A3G	RanGTP-Impb inh	HNF4A DNA FP	LANA-H2A inh	Calb FLC	ALR H2O2 inh
CCCCOc1ccc(CNC(=O)NS(=O)(=O)c2ccc(OCC(C)C)cc2)cc1	-14	6%	1.1	0.2	5.7	-11	-7
CC(C)(C)C1CCC(OC(=O)CN2CCOCC2)CC1 (stereo not given)	5	30%	0.5	3.5	2.0	0	-2
CC1CCC(O)(C(C(=O)O)c2ccccc2)CC1 (stereo not given)	-1	-1%	/	0.9	/	/	/
